# T cruzi inh: blocks replication of Trypanosoma cruzi; T. cruzi beta-gal in NIH3T3, luminescence, 90 h; inhibition, % (test concentration not listed); actives 1.4% (n = 300,000); AID 1885;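 active = mean inhibition across valid replicates above about 55%, limit read from the data; inconclusive = mean below that limit but half or more replicates reach it; inactive = mean below it, under half of replicates reach it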;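 also: signal also drops with host cell toxicity which is not excluded here; 0% = plate median of DMSO wells and 100% = zero luminescence signal; higher percent means less beta-gal luminescence so fewer parasites; stock transfer was 50 nL into about 50 µL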
# LANA-H2A inh: blocks KSHV LANA binding to histone H2A/H2B; cell-free LANA-H2A/H2B peptide, fluorescence polarization; inhibition, % (test concentration not listed); actives 0.6% (n = 320,000); AID 2629; in the data active = inhibition mostly above about 10%, no sharp cut-off; inactive = mostly below about 6.7%;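 also: stock transfer was 7.5 nL into about 10 µL; 0% = median of vehicle wells and 100% = median of positive control wells; one replicate is shown; the record names a cut of 25% in any replicate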
# rRNA inh HTS: inhibitors of bacterial rRNA selective over humanized ribosomes. E. coli WT GFP vs humanized-ribosome RFP mutants, fluorescence, 24 h; active compounds read low; DMSO median 0, no signal -100. GFP signal change (wild-type ribosome), % (concentration not given with the values). actives 1.6% (n = 350,000);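 active = significant combined selectivity score with lowered wild-type GFP, culture density cut under 30%, mutant RFP and density less affected; inactive = any of these conditions unmet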; also: one replicate is shown; some compounds called inactive have numbers as strong as hits
# Beta apoptosis: beta cell apoptosis inhibition. INS-1E cytokine-induced death, ATP luminescence, 48 h; percent of positive-control rescue, neutral wells zero. protection from apoptosis, % (no concentration beside the values). actives 0.8% (n = 300,000). AID 435005;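 active = all replicates at 75% or more, or half of them and the mean; inconclusive = half reach 75% but not the mean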;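 also: 0% = cytokine-treated negative control wells and 100% = positive control rescue; higher means more ATP so stronger rescue from cytokine killing; wells of about 40 µL received 100 nL stock; the first replicate is given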
# Beta2AR agonist: activates human beta-2 adrenergic receptor causing internalization; actives 0.43% (n = 340,000); response, % (concentration not given with the values); P07550; Am2.2-beta2AR cells, FAP receptor internalization, flow cytometry; reference of the scale not given here;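 active = response above a set limit, near 3 SD of response in nonfluorescent compounds, cut at about 42% in these data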;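 also: stock transfer was 100 nL into about 11 µL; a reference agonist was the positive control; negative values mostly stem from fluorescent compounds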
# Target sequence (P07550 whole entry, looked up): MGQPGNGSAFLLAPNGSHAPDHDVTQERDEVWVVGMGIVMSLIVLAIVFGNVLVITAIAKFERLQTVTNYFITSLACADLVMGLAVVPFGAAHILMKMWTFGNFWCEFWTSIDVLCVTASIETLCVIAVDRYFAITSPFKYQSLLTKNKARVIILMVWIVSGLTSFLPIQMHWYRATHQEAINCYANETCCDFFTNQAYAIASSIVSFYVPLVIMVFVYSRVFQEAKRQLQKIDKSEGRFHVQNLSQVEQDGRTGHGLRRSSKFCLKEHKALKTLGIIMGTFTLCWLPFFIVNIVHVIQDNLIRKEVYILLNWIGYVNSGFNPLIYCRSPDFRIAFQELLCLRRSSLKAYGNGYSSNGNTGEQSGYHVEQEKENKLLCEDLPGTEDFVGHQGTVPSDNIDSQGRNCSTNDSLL
# ALR H2O2 inh: human ALR oxidase inhibition via reduced H2O2. actives 3.8% (n = 290,000). purified ALR, DTT oxidation, H2O2 HRP-luminol luminescence. AID 485317. inhibition, % (no concentration beside the values);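 active = mean and each replicate at 75% or more; inconclusive = only one of the two met; inactive = neither met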;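 also: stock transfer was 7.5 nL into about 7.5 µL; 0% = neutral wells and 100% = wells with inactivated enzyme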
# Target sequence (P55789 whole entry, looked up): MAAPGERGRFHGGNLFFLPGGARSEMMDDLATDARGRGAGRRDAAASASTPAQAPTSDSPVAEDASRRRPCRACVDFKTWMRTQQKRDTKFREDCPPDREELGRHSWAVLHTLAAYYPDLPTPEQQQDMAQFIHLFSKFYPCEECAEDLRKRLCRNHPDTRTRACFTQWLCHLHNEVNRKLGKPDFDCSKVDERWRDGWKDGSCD
# Calb FLC: C. albicans growth modulation with fluconazole; C. albicans CaCi-2 (fluconazole-resistant clinical isolate) + fluconazole, Alamar Blue growth, 48 h; growth inhibition, % (test concentration not listed); actives 0.57% (n = 300,000); AID 1979;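 active = most replicates above 75%; inconclusive = exactly half above 75%; inactive = most below 75%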;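 also: all wells also contain fluconazole at 8 µg/ml as a sub-toxic cotreatment; 0% = median of DMSO wells and 100% = median of geldanamycin control wells; wells of about 8 µL received 7.5 nL stock; the first replicate is given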
# Bfl-1 A1 inh: inhibitors of the anti-apoptotic protein A1, read as caspase activation; MEF A1-2A-BIM cells, Caspase-Glo 3/7 luminescence, 3 h; percent of clofoctol response, vehicle zero; caspase activation, % (test concentration not listed); actives 0.066% (n = 330,000);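 active = over half of replicate activation scores above 10%, or exactly half above 10 with the replicate mean above 10; inconclusive = replicate mean below 10 yet half the replicates above 10; inactive = over half of replicates below 10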;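 also: wells of about 30 µL received 50 nL stock; many hits fall short of the cut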
# rRNA inh HTS OD600: recorded beside rRNA inh HTS, whose call it bears; OD600 change, %; measured here: OD600 growth;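 optical density of the mix in the first replicate; 0 = DMSO median and -100 = no signal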
# rRNA inh HTS RFP: also measured in rRNA inh HTS; calls as there; RFP signal change, %; measured here: RFP humanized mutant strains;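 first replicate; 0 = DMSO median and -100 = no signal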
# * = called active by the depositor; ? = inconclusive; nt = not tested or not shown. Some of the compounds tested; rates above refer to the full screens.
SMILES	T cruzi inh	LANA-H2A inh	rRNA inh HTS	rRNA inh HTS OD600	rRNA inh HTS RFP	Beta apoptosis	Beta2AR agonist	ALR H2O2 inh	Calb FLC	Bfl-1 A1 inh
CCC(c1nnnn1C(C)(C)CC)N1CCN(c2ccccc2F)CC1 (centres undefined)	13	-1.9	-5	5	5.1	3	3	-3	1	2.0
Cc1ccc(NC(=S)Nc2cccc3cnccc23)c(C)c1	-10	4.5	2	-4	11	17	-1	-2	?	0.4
Cc1ccccc1-c1noc(-c2ccccc2C(=O)NCc2ccco2)n1	9	3.2	-10	6	2.3	nt	2	15	-19	0.5
CC(C(=O)NC1CCCC1)N1C(=O)c2cccc3cccc1c23 (centres undefined)	16	0.0	3	-8	2.5	0	-3	-46	-8	0.0
Cn1c(=O)c(=O)n(C)c2cc([N+](=O)[O-])c(N3CCOCC3)cc21	-3	5.1	-2	9	-1.0	0	0	-3	-9	0.7
CN1C(=O)c2ccc(NC(=O)c3ccc(N4CCCCC4)c([N+](=O)[O-])c3)cc2C1=O	31	-3.1	nt	nt	nt	-9	-8	1	-4	0.8
Clc1cccc2sc(N3CCN(c4ccccc4)CC3)nc12	-3	3.8	-6	-10	4.0	5	-5	-3	-9	-0.3
NC(=O)c1ccc(N2CCCCC2)c(N2C(=O)C3CC=CCC3C2=O)c1 (centres undefined)	-5	11	nt	nt	nt	1	-1	3	2	0.2
O=C(NCC1OCCc2ccccc21)c1ccc(NC(=O)c2cccc(Br)c2)cc1 (centres undefined)	44	nt	nt	nt	nt	14	1	nt	4	0.5
NC(=O)C1CCN(C(=O)CN(c2cccc(C(F)(F)F)c2)S(=O)(=O)c2ccccc2)CC1	4	-5.5	nt	nt	nt	1	4	2	9	0.4
CC(C)CC(NS(=O)(=O)c1cc(C(=O)O)ccc1Cl)C(=O)O (centres undefined)	-5	-2.4	13	13	1.7	-3	0	1	-13	0.4
CCOC(=O)CNC(=O)CSc1nc(-c2cccc(C)c2)ns1	-12	0.4	-3	-3	-0.2	-2	18	-3	-7	-0.1
COc1ccccc1OCc1ccc(C(=O)Nc2ccccc2F)cc1	-10	-3.7	nt	nt	nt	6	11	nt	-2	-4.2
O=C(C(=O)N1CCCCCC1)c1c[nH]c2ccccc12	-3	-2.4	6	7	1.2	-7	-4	1	-3	1.2
CC(/C=N\NC(=O)Cn1cncn1)=C/c1ccc(C(C)C)cc1	-16	-2.2	2	7	-0.1	1	7	1	17	-0.9
Nc1ccc2c(c1)-c1ccccc1S(=O)(=O)N2	-5	-4.4	nt	nt	nt	-5	13	100*	41	0.0
Cc1nc2cc(-c3cccc(F)c3)nn2c(C)c1CCC(=O)NC(C)CCc1ccco1 (centres undefined)	39	-0.8	nt	nt	nt	nt	5	-18	2	-3.3
CN1C(=O)C(C)(C)c2cc(S(=O)(=O)N3CCN(c4cccc(Cl)c4)CC3)ccc21	49	0.2	-2	-3	-4.3	-4	-4	14	30	-0.7
O=C(Nc1ccon1)c1ccc(Cl)s1	-23	-4.4	nt	nt	nt	-2	4	-1	-11	0.6
COCCNc1ncnc2c1[nH]c1ccccc12	-7	4.7	4	-11	-3.0	-2	-4	1	6	-0.7
Cc1ccccc1CNC(=O)CCC(=O)N1Cc2ccccc2Oc2ncccc21	5	0.2	-13	-5	-1.6	-3	-1	-13	-1	-0.3
COc1ccc2[nH]c(N=Nc3ccccc3C)c(O)c2c1	-34	-0.5	nt	nt	nt	-6	0	10	-9	-0.8
CC1CCCCN1C(=O)c1ccc(C(=O)c2ccccc2)cc1 (centres undefined)	nt	-4.3	-13	-21	-1.6	6	-12	nt	nt	0.4
CCCc1cc(C(=O)OC)c(NC(=O)OCC)s1	13	-7.5	4	-9	-2.2	-4	-2	-3	4	-0.3
COc1ccc(C(=O)Nc2ccc3c(c2)OCCO3)cc1S(=O)(=O)N1CCOCC1	nt	2.7	3	-8	0.0	-3	0	-3	nt	1.8
O=C(Oc1cccc(C(=S)N2CCOCC2)c1)c1ccc([N+](=O)[O-])cc1	-5	4.7	-5	1	-0.1	-6	2	-8	-2	-0.1
Cc1cccc(-n2c(SCc3cc(=O)n4ccsc4n3)nc3ccccc32)c1	62*	-0.4	nt	nt	nt	2	7	-41	114*	0.9
Cc1c(C(=O)NCC2COc3ccccc3O2)oc2ccc(S(=O)(=O)N3CCOCC3)cc12 (centres undefined)	8	-4.0	nt	nt	nt	2	17	-13	24	-1.0
Cc1ccsc1C(=O)OCC(=O)NCCCc1ccccc1	-5	9.2	-18	-14	1.1	-5	-2	nt	0	0.6
COc1ccc(C(=O)Nc2cccc(-c3nnc(-c4ccco4)o3)c2)cc1	5	4.4	nt	nt	nt	nt	20	0	57	-1.2

# Another view of 5 compounds above:
# Values in the order – T cruzi inh, LANA-H2A inh, rRNA inh HTS, rRNA inh HTS OD600, rRNA inh HTS RFP, Beta apoptosis, Beta2AR agonist, ALR H2O2 inh, Calb FLC, Bfl-1 A1 inh
> NC(=O)c1ccc(N2CCCCC2)c(N2C(=O)C3CC=CCC3C2=O)c1 (centres undefined)
  -5, 11, nt, nt, nt, 1, -1, 3, 2, 0.2
> O=C(NCC1OCCc2ccccc21)c1ccc(NC(=O)c2cccc(Br)c2)cc1 (centres undefined)
  44, nt, nt, nt, nt, 14, 1, nt, 4, 0.5
> NC(=O)C1CCN(C(=O)CN(c2cccc(C(F)(F)F)c2)S(=O)(=O)c2ccccc2)CC1
  4, -5.5, nt, nt, nt, 1, 4, 2, 9, 0.4
> CC(C)CC(NS(=O)(=O)c1cc(C(=O)O)ccc1Cl)C(=O)O (centres undefined)
  -5, -2.4, 13, 13, 1.7, -3, 0, 1, -13, 0.4
> CCOC(=O)CNC(=O)CSc1nc(-c2cccc(C)c2)ns1
  -12, 0.4, -3, -3, -0.2, -2, 18, -3, -7, -0.1

# Next section:
SMILES	T cruzi inh	LANA-H2A inh	rRNA inh HTS	rRNA inh HTS OD600	rRNA inh HTS RFP	Beta apoptosis	Beta2AR agonist	ALR H2O2 inh	Calb FLC	Bfl-1 A1 inh
CCC1(C)Cc2c(sc3nc(SC)[nH]c(=O)c23)CO1 (centres undefined)	3	-2.5	2	-4	-8.6	-4	4	nt	0	0.5
Cc1ccc2c(c1)COc1c3ccc(C(=O)N4CCCCC4)cc3nn1-2	-3	-2.3	-10	-6	-5.0	nt	-6	-1	-9	0.7
Cc1nnc2c(N3CCN(C(=O)c4ccco4)CC3)nc3ccccc3n12	-5	4.2	3	1	2.0	-7	0	-3	8	-0.2
Cc1nn(C(C)C(=O)O)c(=O)c2ccccc12 (centres undefined)	-9	-0.8	13	9	0.0	-4	1	-16	25	-0.4
O=C(CN1CCCC1)OCCCC1CCCCC1	0	-2.4	6	-2	0.6	-2	4	-6	0	-0.1
CSCCC(NC(=O)COc1ccccc1)C(=O)N(C)Cc1ccc(Cl)cc1Cl (centres undefined)	nt	2.6	-9	-12	1.2	-2	-6	-4	nt	0.0
O=C(NCCc1c[nH]c2ccccc12)C(=O)NCC1OCCCN1S(=O)(=O)c1ccc(F)cc1 (centres undefined)	-7	-2.2	-18*	-13*	3.4*	-5	-3	12	-3	0.4
COc1ccc(S(=O)(=O)Nc2ccccc2C(=O)NCc2cccnc2)cc1OC	-13	1.4	2	3	-0.1	-3	8	-1	-1	0.3
O=c1[nH]c(CSc2nnc(COc3ccccc3)n2-c2ccccc2)nc2ccccc12	19	-3.6	nt	nt	nt	-2	-5	13	8	0.8
COc1ccc(C(=O)NCCc2nnc3ccc(SCC(=O)N4CCCC4)nn23)cc1	-10	-0.3	nt	nt	nt	nt	1	3	4	0.6
CC(C(=O)Nc1ccc2c(c1)OCCO2)N1Cc2ccccc2C1=O (centres undefined)	-7	9.8	3	-3	1.8	-2	-6	-12	-1	0.9
COc1cc(NC(=O)c2noc3c2CCC3)c(OC)cc1Cl	10	1.4	nt	nt	nt	5	6	-5	-1	-0.2
COc1ccc(F)cc1S(=O)(=O)N1CCCC(C)C1 (centres undefined)	5	2.6	nt	nt	nt	-4	8	-5	0	0.2
O=C(NCCCn1ccnc1)c1ccc(NS(=O)(=O)c2cccc([N+](=O)[O-])c2)cc1	-4	4.8	1	12	-1.6	7	-11	-9	nt	-0.3
CCOc1ccc(C(Nc2cccnc2)c2cc(Cl)c3cccnc3c2O)cc1 (centres undefined)	-1	1.6	-48	-73	-32	86*	5	-4	110*	1.1
Cc1cccc(-n2c(Cc3cc(=O)[nH]c(=O)[nH]3)nnc2SC(C)C)c1	-2	-1.7	2	3	1.3	nt	17	-11	-2	0.5
CC(C)(C)C(=O)Nc1ccc(C(=O)N/N=C/c2ccccc2OC(=O)c2ccc(Cl)cc2Cl)cc1	0	0.5	nt	nt	nt	88*	-5	3	?	-0.8
COc1cccc(C(=O)/C=C2\Sc3ccccc3N2C)c1	15	0.9	-28*	-14*	-3.2*	nt	16	11	-19	1.3
O=C(CSCc1ccco1)Nc1cc(C(F)(F)F)ccc1N1CCOCC1	28	-3.5	nt	nt	nt	-15	1	5	-1	-0.4
O=C(CN1CCC(NC(=O)c2ccco2)CC1)Nc1cccc2ccccc12	10	-1.3	nt	nt	nt	0	3	-16	-2	0.4
Brc1nnc2n1-c1ccccc1Sc1ccccc1-2	4	1.0	nt	nt	nt	-10	-6	-2	nt	-0.4
O=C(NCc1cc(C(F)(F)F)ccc1Cl)c1cccc2c1C(=O)c1ccc(Cl)cc1S2(=O)=O	nt	-3.5	2	12	-2.1	9	nt	11	nt	-0.2
COc1ccc(-c2nc(N)ncc2-c2ccc(OC)c(OC)c2)c(O)c1	7	0.1	0	14	-3.7	0	17	13	11	0.1
CCOc1ccc(CN2CCNC(=O)C2CC(=O)NCc2ccccn2)cc1 (centres undefined)	-7	-0.4	13	1	-2.1	-8	-5	nt	37	-0.2
Cc1ccc(Sc2ncccc2C(=O)NCc2cc([N+](=O)[O-])ccc2O)c(C)c1	-9	-17	-39	-52	-7.2	-1	2	34	?	0.9
CCS(=O)(=O)N1CCN(C2CCC(c3ccccc3)CC2)CC1 (centres undefined)	-2	3.5	nt	nt	nt	10	0	-2	-15	0.3
Cc1ccc(CNC(=O)C2CCCN(S(=O)(=O)c3ccc(-n4cnnn4)cc3)C2)cc1 (centres undefined)	-1	0.1	3	7	-2.1	3	-8	-1	5	-0.5
Cc1cccc(COc2ccc(/C=N/NC(=O)c3nnn(-c4nonc4N)c3C)cc2)c1	0	-3.0	11	18	0.0	-7	-3	2	2	1.0
CC(C)CN1CCC(=O)N([C@H](CSc2ccc(Br)cc2)c2ccccc2)CC1	-11	6.3	-7	-1	4.2	-9	-1	63	-9	-0.5
Cc1cc2oc(=O)cc(COC(=O)Cn3cnnn3)c2cc1C(C)C	-2	-0.4	nt	nt	nt	-2	5	-2	12	0.7
